TRPML1 blocker – blocks the human TRPML1 channel; Q9GZU1; TRPML1-inducible cells, Ca2+ dye fluorescence, FDSS; stronger effect = lower value; inhibition of EC80 agonist-evoked calcium signal; activity change, negative = inhibition, % (test concentration not listed); 0.02% of 390,000 active; AID 624415; in the data active means activity change below about -50%; inconclusive means about -30% to -50%; inactive means above about -30%;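 further: stimulus is agonist 54-4 at its EC80 concentration; on the % scale 0 is the no-effect control and ±100 the full control effect; compound concentration not given in the record; the text of the record puts the active cut at -80%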
Target sequence (Q9GZU1 whole entry, looked up): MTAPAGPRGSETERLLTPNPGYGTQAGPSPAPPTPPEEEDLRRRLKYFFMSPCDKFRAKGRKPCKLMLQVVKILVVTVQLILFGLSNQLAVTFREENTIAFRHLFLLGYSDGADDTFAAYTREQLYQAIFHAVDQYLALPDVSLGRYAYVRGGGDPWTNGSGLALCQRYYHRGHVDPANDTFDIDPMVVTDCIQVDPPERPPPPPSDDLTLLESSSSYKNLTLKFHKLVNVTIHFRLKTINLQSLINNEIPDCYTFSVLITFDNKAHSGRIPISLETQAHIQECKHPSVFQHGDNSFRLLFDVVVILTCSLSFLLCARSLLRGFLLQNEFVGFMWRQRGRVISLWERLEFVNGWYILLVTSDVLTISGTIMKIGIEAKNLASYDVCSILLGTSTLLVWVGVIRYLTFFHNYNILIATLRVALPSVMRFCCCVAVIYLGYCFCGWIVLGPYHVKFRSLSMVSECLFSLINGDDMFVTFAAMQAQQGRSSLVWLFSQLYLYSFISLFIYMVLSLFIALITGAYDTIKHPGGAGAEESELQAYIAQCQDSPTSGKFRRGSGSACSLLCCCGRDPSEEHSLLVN
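Tet-induced TRPML1-DL cells loaded with Ca8 no-wash calcium dye were read kinetically on FDSS. Compound addition was followed by EC80 agonist 54-4 (4 uM final); inhibition was read over 110 s.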
gsp ag – agonists of gsp mutant (McCune-Albright syndrome). gsp mutant cells, cAMP HTRF, 30 min; control for the full effect not named in the record. Potency, µM (series often up to 76.9 µM), for inactives: at the highest dose activation (cAMP increase), hits mostly activators. 0.13% of 340,000 active. AID 624287; active = well fitted activation curve with a large enough effect; inconclusive = small, poorly fitted or top-dose-only effect, or another doubt; inactive = no such curve, though single readings can be large or run the other way; cell line not stated here;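 further: phosphodiesterase inhibitor Ro 20-1724 added with compounds to block cAMP breakdown; potency means the concentration at half of the fitted maximal effect; nearly all actives have a fitted effect of over 60% in size; about a fifth of the inactives were tested at one dose only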
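Cells stably selected in G418 were plated at 2000/well, grown 16-24 hr, then given compounds in DMSO with the PDE inhibitor […] (300 uM solution added) for 30 min at 37C; cAMP was read by HTRF.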
Menin MLL FP FL – inhibitors of human menin-MLL interaction, wild-type MLL peptide. Fluorescence polarization, fluorescein-MLL peptide displacement from menin. FP activity change, % at 61.4 µM. 290,000 tested, under 10 active. AID 1766; inconclusive = falling polarisation curve, or a change in total fluorescence; inactive = total fluorescence flat and polarisation flat or rising; no compound was filed as active; the % refers to the polarisation; negative = inhibition;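 further: % of control where 0% means no effect; inhibitors lower the polarisation; unlabelled MLL peptide was the positive control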
ClpP mod – qHTS Assay for Activators of ClpP | purified B. subtilis ClpP, FRET peptide cleavage, 20 min | Potency, µM (series often up to 57.5 µM), for inactives: top-dose activity change, negative = active | 1.9% of 340,000 active | AID 651965, 2013; active = well fitted falling curve with a large enough effect; inconclusive = small, poorly fitted or top-dose-only effect; inactive = no such curve, though single readings can be large or run the other way; further: potency means the concentration at half of the fitted maximal effect; the source files actives as falling curves though it sought activators and does not explain the sign; nearly all actives have a fitted effect of over 65% in size; many hits overshoot -100%
Target sequence (P80244 whole entry, looked up): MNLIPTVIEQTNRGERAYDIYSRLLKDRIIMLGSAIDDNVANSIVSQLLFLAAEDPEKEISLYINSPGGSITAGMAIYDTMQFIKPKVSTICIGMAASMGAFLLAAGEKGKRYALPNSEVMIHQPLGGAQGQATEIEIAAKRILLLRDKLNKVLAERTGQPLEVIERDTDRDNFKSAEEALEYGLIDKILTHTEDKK
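ClpP 10 microg/mL final, pH 8 Tris/KCl buffer with BSA, glycerol, Tween-20; compound pinned in; FRET-FV substrate; RT 20 min; Ex320/Em430; ΔFRET vs ADEP 5.8 microM, DMSO, no enzyme.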
TRPML1 agonist – human mucolipin-1 channel agonism; TRPML1-expressing cells, Ca2+ dye fluorescence, FDSS; host cell line not named in the record; reference of the full effect not given here; activation, % (concentration not given with the values); Q9GZU1; 0.12% of 410,000 active; AID 624414; in the data active = activation above about 50%; inconclusive = about 30% to 50%; inactive = below about 30%; further: 0% is about no effect; the text of the record puts the active cut at 80%
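Agonist activity was taken from a 110 s kinetic Ca2+ dye read on the FDSS after pinning compounds onto TRPML1-DL cells. The cells were seeded at 1,500/well with Tet inducer, incubated about 16 h, then dye-loaded at room temperature.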
gsp antagonist – gsp mutant antagonism; AID 624288; Potency, µM (top dose mostly 76.9 µM), for inactives: at the top dose activity change, negative = inhibition, actives largely listed as inhibitors; gsp-mutant cells, cAMP HTRF, 30 min; control for the full effect not named in the record; 0.4% of 340,000 active; active = falling curve of any shape with a large fitted effect; inconclusive = falling curve, mostly with a smaller effect; inactive = flat or rising curve; cell line not stated here;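 further: intracellular cAMP measured with PDE inhibitor Ro 20-1724 present during compound exposure; potency means the concentration at half of the fitted maximal effect; on the % scale 0 is the no-effect control and ±100 the full control effect; nearly all actives have a fitted effect of over 65% in size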
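HTRF cAMP measurement after 30 min RT detection following 30 min, 37C compound treatment alongside […] (added as 300 uM solution) in G418-selected cells seeded at 2000/well and grown 16–24 h.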
Starred values were filed as active, the others as inactive; u = inconclusive; x = no result given; & = joins results of further samples; [ ] = remark or other dose.

SMILES	TRPML1 blocker	gsp ag	Menin MLL FP FL	ClpP mod	TRPML1 agonist	gsp antagonist
CCN1CCCc2cc(CN(CCN3CCOCC3)C(=S)Nc3ccccc3C)ccc21	x	0%	-8.6	-3.9%	x	9%
CCCCCOc1ccc(/C=C/C(=O)Nc2sc3c(c2C(=O)OCC)CCC3)cc1OC	10	x	x	-4.2%	0.5	x
CCOC(=O)c1ccc(NC(=O)CCn2c(=O)oc3ccccc32)cc1	-6&-7	-34%[inhibitor]	0.2	0.9%&-4.2%	-0.3&0.9	-19%
CC1CCCCN1Cc1ccc(-c2nnn(CC(=O)NC3CCCCC3)n2)cc1 (centres undefined)	4	9%	3.5	-13%	0.4	10%
COc1ccc([N+](=O)[O-])cc1NS(=O)(=O)c1cc(C(=O)NCc2cccnc2)ccc1Cl	-9	5%	x	3.1%	-0.1	-19%
CCCC(=O)Nc1ccc(C(=O)NCCc2ccc(F)cc2)cc1	0	-4%	5.1	-3.6%	-0.8	12%
O=C1C2=C(c3ccccc31)[N+](=O)C1CCCCC1N2[O-] (centres undefined)	12	0%	-1.3	0.5%	-0.5	-6%
COc1ccc(C(=O)NCc2ccco2)cc1S(=O)(=O)N1CCOCC1	-10	u	6.7	x	0.3	10%
COC(=O)C1=C(C)NC2=C(C(=O)CC(c3cccs3)C2)C1c1ccsc1 (centres undefined)	-2	-12%	2.8	u	-0.3	0%
CS(=O)(=O)Nc1ccc(C(=O)NCCSCc2ccccc2)cc1	5	-1%	5.2	x	-0.9	3%

Single records, as listed above. Values in the order: TRPML1 blocker, gsp ag, Menin MLL FP FL, ClpP mod, TRPML1 agonist, gsp antagonist
Profile of COc1ccc(C(=O)NCc2ccco2)cc1S(=O)(=O)N1CCOCC1 → -10, u, 6.7, x, 0.3, 10%
Profile of CCCCCOc1ccc(/C=C/C(=O)Nc2sc3c(c2C(=O)OCC)CCC3)cc1OC → 10, x, x, -4.2%, 0.5, x

The results go on:
SMILES	TRPML1 blocker	gsp ag	Menin MLL FP FL	ClpP mod	TRPML1 agonist	gsp antagonist
COc1ccc(-c2[nH]c3ccccc3c2SCCNC(=O)c2cc(OC)c(OC)c(OC)c2)cc1	33	x	x	u	1.7	x
O=C(CCC(=O)N1CCN(c2ccccc2)CC1)Nc1nnc(C2CCCCC2)s1	-6	0%[15.4 µM]	-0.6	1.0%	-0.8	0%
Cc1c(Br)c(-c2n[nH]c(=S)n2Cc2ccco2)nn1C	37	30%	1.0	-4.3%	2.0	7%
Cc1cc(C)c(OCC(=O)OCC(=O)N2CCCc3ccccc32)c(C)c1	-16	0%[15.4 µM]	x	x	0.9	2%
CCCCn1c(C(C)NC(=O)c2cccs2)nc2ccccc21 (centres undefined)	-5	-46%[inhibitor]	4.7	-1.3%	5.1	10%
CC(=O)Nc1ccc(C(=O)NNC(=O)c2ccc(Cl)cc2Cl)cc1	-27	-4%	-1.9	-0.8%	1.0	-2%
COc1cc(C(=O)NN=Cc2ccc(N(C)C)cc2)cc(OC)c1OC	7	u	x	-4.5%	-0.8	x
CN(c1ccccc1)S(=O)(=O)c1cccc(NC(=O)CSc2nncn2C)c1	-3	1%	0.2	1.3%	-0.8	-16%
FC(F)Oc1ccc(NC(=S)NNc2ccnc3cc(Cl)ccc23)cc1	3	13%	6.7	x	0.6	-18%
Cc1cnc2c(c1)C(=O)c1ccccc1-2	-10	-40%[inhibitor]	2.9	0.3%	-0.2	11%
CCN(C(=O)CSc1nnc(-c2cc(OC)c(OC)c(OC)c2)o1)c1ccccc1	28	x	x	-6.2%	-0.2	x
COc1ccccc1CNC(=O)COC(=O)c1ccc(Cl)c(N)c1	5	-9%[15.4 µM]	2.2	x	3.3	11µM*
O=C(COc1ccc2c(c1)OCO2)Nc1ccccc1F	23	u	-5.5	-0.1%	0.8	-7%
COc1ccc(CNC(=S)Nc2ccccc2)cc1	-3	14%[15.4 µM]	-8.6	-4.6%	0.6	-6%
Cc1cc(/C=C2\SC(=S)NC2=O)c(C)n1-c1cccc(O)c1	x	-2%	u	1.3%	x	-24%
COc1ccc(NC(=O)N2CCn3c2nc2ccccc23)cc1	1	25%	1.5	0.9%	-0.6	-4%
O=C(N/N=C/c1cccc2nccnc12)c1ccncc1	-7	u	4.2	x	0.9	-7%
Cc1ccc(-c2noc(CSc3nnc(-c4ccncc4)n3-c3ccc(C)cc3)n2)cc1	7	-6%	-0.6	-0.2%	0.1	u
CC(C)n1c(SCC(=O)Nc2ccc3c(c2)OCO3)nc2c1c(=O)n(C)c(=O)n2C	-3	21%	1.4	0.9%	0.2	3%
CNC(=O)CCC(=O)Nc1ccc(C)cc1	-11	-3%	0.7	-0.4%	6.1	10%
O=C(OCc1cc(Cl)cc2c1OCOC2)c1cccnc1Cl	-1	10%[15.4 µM]	x	-3.3%	1.6	-12%
CC(C)(C)n1nc2c(c1NC(=O)c1ccc(F)c(F)c1)CS(=O)(=O)C2	1	-5%[15.4 µM]	x	-0.1%	-0.6	10%
O=C(O)Cn1c(O)c(C=Nc2ccccc2)sc1=S	1&-23	5%&-57%	u	0.6%&-1.1%	0.2&1.4	-12%&-11%
O=C1c2cccnc2C(Nc2ccc(Br)cc2)N1Cc1cccs1 (centres undefined)	5	-67%[inhibitor]	2.1	-1.4%	-0.3	-11%
COc1ccc(C(=O)N/C(=C\c2ccco2)C(=O)NCc2cccnc2)cc1	-23	12%	x	-1.8%	0.3	4%
S=C(Nc1ccc(Cl)cc1)NC1CCCCC1	12	2%[15.4 µM]	2.9	x	1.3	-11%
CSc1ccc(N=Nc2c(C)[nH]n(C)c2=O)cc1	-17	-1%[15.4 µM]	3.6	x	1.3	-11%
O=C(Cc1ccccc1)NCc1nc2ccccc2[nH]1	-1	-66%[inhibitor]	x	-2.2%	0.3	8%
Cc1c(C(=O)OCC2CCCCC2)[nH]c2c1C(=O)CC(c1ccccc1Cl)C2 (centres undefined)	-5	x	x	0.5%	0.5	x
Cn1nnnc1SCC(=O)N1CCN(S(=O)(=O)c2ccccc2)CC1	-6	1%	-6.8	0.2%	-0.5	4%
COc1ccc([C@H]2N[C@]3(CCCN(Cc4ccc(Cl)cc4)C3=O)[C@H]3C(=O)N(Cc4ccccc4)C(=O)[C@@H]23)cc1	-4	u	x	1.8%	3.1	x
Fc1ccc2cc(-c3cccnc3)ncc2c1	5	-40%[inhibitor]	x	-26%	-0.3	7%
COCCN(CC(=O)Nc1ccc(F)cc1)S(=O)(=O)c1ccc(S(=O)(=O)N2CCCC2)cc1	u	-3%	-0.2	-0.3%	-0.3	8%
O=C(NCCOc1ccccc1)c1ccc2n[nH]nc2c1	4	-2%	x	-1.9%	3.6	-4%
C=CCOc1ccc(/C=C2\SC(N3CCCCC3)=NC2=O)cc1	-14	-25%	4.2	x	1.7	-3%
CCc1c(C)nc(SC)n(CC#N)c1=O	-1	7%	-1.8	-0.2%	-0.4	-4%
CCN1C[C@@H]2[C@@H]3C(=O)N(Cc4ccccc4)C(=O)[C@@H]3[C@](C)(C1=O)N2C(=O)c1ccccc1	-2	x	x	-0.8%	-0.1	10%
O=C(O)c1sccc1Oc1ccc(NS(=O)(=O)c2ccccc2)cc1	-15	20%	-0.6	x	0.1	3%
CCOC(=O)CSc1n[nH]c(NC(C)=O)n1	-5	4%	-0.9	-0.3%	0.4	-1%
CC(=O)N(C)Cc1ccc(C(=O)CCl)cc1	7	-9%[15.4 µM]	-3.2	x	0.2	3%
CC(=O)Nc1ccc(NC(=O)CN(c2ccccc2Cl)S(C)(=O)=O)cc1	-2	-23%	3.5	-0.1%	0.9	7%
O=C(NCC(=O)N1CCCC1)c1ccc(Br)o1	14	10%[15.4 µM]	-5.2	-1.0%	0.4	-5%
COc1cc(OC)cc(C(=O)NCC(=O)NC(C)c2ccccc2)c1 (centres undefined)	15	-26%	0.7	-11%	1.3	8%
CCc1ccccc1Nc1nn2c(=O)c3ccc(C(=O)NCCC4=CCCCC4)cc3nc2s1	-6	x	x	12%	0.7	x
CCCn1c(SCC(=O)Nc2sc(C)c(C)c2C#N)nnc1C(C)C	17	2%	u	2.8%	1.1	-11%
O=C(CN1C(=O)C2CC=CCC2C1=O)Nc1ccc(S(=O)(=O)N2CCOCC2)cc1 (centres undefined)	0	8%[15.4 µM]	-2.9	x	-0.4	-5%
COc1ccc(Cn2c(=O)c3oc4ccccc4c3n(CC(=O)Nc3ccc(F)cc3F)c2=O)cc1	-2	x	x	-0.1%	1.6	x
CC(C)C[C@@H](CN=[N+]=[N-])N1CCN(C)CCC1=O	-8	2%	-5.3	-4.6%&-4.3%	-0.6&-0.4	10%
Cc1cnc(C=NNC(N)=S)c2cccc(N)c12	17	7%	x	0.7%	0.4	u
CC(C)C(=O)N(Cc1ccc(F)cc1)Cc1nc2ccccc2c(=O)[nH]1	-26	12%[15.4 µM]	-2.8	x	-0.3	-10%

An excerpt from above in order of the Menin MLL FP FL value, largest number first:
structure | Menin MLL FP FL
CC(=O)Nc1ccc(NC(=O)CN(c2ccccc2Cl)S(C)(=O)=O)cc1 | 3.5
COc1cc(OC)cc(C(=O)NCC(=O)NC(C)c2ccccc2)c1 (centres undefined) | 0.7
CC(C)C(=O)N(Cc1ccc(F)cc1)Cc1nc2ccccc2c(=O)[nH]1 | -2.8
O=C(CN1C(=O)C2CC=CCC2C1=O)Nc1ccc(S(=O)(=O)N2CCOCC2)cc1 (centres undefined) | -2.9
O=C(NCC(=O)N1CCCC1)c1ccc(Br)o1 | -5.2
CC(C)C[C@@H](CN=[N+]=[N-])N1CCN(C)CCC1=O | -5.3

Next records.
SMILES	TRPML1 blocker	gsp ag	Menin MLL FP FL	ClpP mod	TRPML1 agonist	gsp antagonist
O=C1CCCC(c2ccccc2)N1 (centres undefined)	-6	-25%	2.2	-7.6%	0.7	11%
COc1ccc(-c2ccc(-c3nc4ccc(C)cn4c3NC3CCCCC3)cc2OC)cc1	16	u	x	4.0%&5.2%	1.5&0.6	-6%
COc1ccc(NC(=O)c2ccccc2C(=O)N2CCCCC2)cc1	-12	6%[15.4 µM]	0.1	x	2.3	7%
COc1cccc(-c2cnc(C(O)c3ccc(C)cc3C)[nH]2)c1 (centres undefined)	-10	x	x	-2.1%	-0.1	x
COc1cc(/C=N/Nc2nc3ccccc3[nH]2)cc(Br)c1OCC(=O)N(C)C	5	1%[15.4 µM]	-2.8	2.1%	-0.8	-10%
CCNS(=O)(=O)c1ccc(CCC(=O)N2CCOCC2)cc1	-4	1%	-0.1	-0.6%	0.8	5%
Cc1cc(=O)[nH]c2c1c(=O)[nH]n2C1CC(C)N(C)CC1C (centres undefined)	2	15%	0.7	-4.8%	-0.3	-16%
CCOc1ccc(CNC(=O)c2ccc(-c3nc(CSc4ccc(C)cc4)c(C)o3)cc2)cc1	-3	x	x	-3.1%	0.3	x
COc1ccc(S(=O)(=O)N(CC(=O)N2CCOCC2)Cc2ccccc2)cc1C	9	-26%	-1.1	-3.0%	1.6	-2%
COc1ccc(C(=O)Nc2sc3c(c2C#N)CCN(C(C)=O)C3)cc1	16	-6%	u	x	-0.6	15%

Screens from PubChem.
